Compound activity (PubChem BioAssay)
rRNA inh HTS = inhibits bacterial ribosomal RNA function over humanized ribosomes | 350,000 tested, 1.6% active | GFP signal change (wild-type ribosome), % (concentration not given with the values) | E. coli WT GFP vs humanized-ribosome RFP mutants, fluorescence, 24 h; active compounds read low; DMSO median 0, no signal -100;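 active = significant combined selectivity score with lowered wild-type GFP, culture density cut under 30%, mutant RFP and density less affected; inactive = any of these conditions unmet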; also: one replicate is shown; some compounds called inactive have numbers as strong as hits
FGF22 binding = binders of recombinant human FGF22 by thermal shift. 340,000 tested, 1.5% active. SYPRO orange fluorescence; percent of sucrose octasulfate shift, DMSO zero. Q9HCT0. AID 651658. calls only at 9.99 µM;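 active = melting point raised past a set limit in the mean and every replicate; inconclusive = no clear call; three in four hits are not shown here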
Target sequence (Q9HCT0 whole entry, looked up): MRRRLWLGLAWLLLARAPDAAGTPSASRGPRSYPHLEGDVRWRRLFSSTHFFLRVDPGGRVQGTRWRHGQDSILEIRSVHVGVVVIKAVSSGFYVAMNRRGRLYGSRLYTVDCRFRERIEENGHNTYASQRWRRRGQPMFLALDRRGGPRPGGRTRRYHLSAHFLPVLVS
AF4-AF9 inh = blocks AF4 peptide binding to human AF9; inhibition, % at 10 µM; P42568; AlphaScreen, biotin-AF4 peptide binding to FLAG-AF9; AID 651704; 350,000 tested, 0.47% active;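 active = every replicate reaching a set inhibition limit, whatever the replicate mean, cut at about 25% in these data; inconclusive = mean inhibition reaches that limit but some replicates miss it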;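 also: 0% = plate neutral control median and 100% = total signal loss; the record names both 10 and 1 µM as test concentration; the first replicate is given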
Target sequence (P42568 whole entry, looked up): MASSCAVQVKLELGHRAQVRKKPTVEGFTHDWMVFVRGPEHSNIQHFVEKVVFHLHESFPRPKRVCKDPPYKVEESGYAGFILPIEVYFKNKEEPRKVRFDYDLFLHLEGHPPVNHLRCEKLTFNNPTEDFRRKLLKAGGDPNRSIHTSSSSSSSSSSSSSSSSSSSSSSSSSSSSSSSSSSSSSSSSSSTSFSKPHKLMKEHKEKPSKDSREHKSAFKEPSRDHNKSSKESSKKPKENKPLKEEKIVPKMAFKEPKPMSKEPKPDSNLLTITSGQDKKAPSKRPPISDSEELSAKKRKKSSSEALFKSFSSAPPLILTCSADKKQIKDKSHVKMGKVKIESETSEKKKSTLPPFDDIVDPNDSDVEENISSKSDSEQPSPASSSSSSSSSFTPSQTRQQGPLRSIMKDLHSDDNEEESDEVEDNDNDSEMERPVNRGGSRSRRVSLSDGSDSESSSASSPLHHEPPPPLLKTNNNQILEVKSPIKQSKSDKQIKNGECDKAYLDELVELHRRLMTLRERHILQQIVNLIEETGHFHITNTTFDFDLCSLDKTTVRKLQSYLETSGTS
rRNA inh HTS OD600 = further read-out of rRNA inh HTS, marked with its call; OD600 change, %; measured here: OD600 growth;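 optical density of the mix in the first replicate; 0 = DMSO median and -100 = no signal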
rRNA inh HTS RFP = recorded beside rRNA inh HTS, whose call it bears; RFP signal change, %; measured here: RFP humanized mutant strains;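 first replicate; 0 = DMSO median and -100 = no signal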
An asterisk follows results filed as active; i = inactive; ? = inconclusive; · = no result given; & = joins results of further samples. Not all compounds are listed (hit frequency here may not be typical).

SMILES | rRNA inh HTS | rRNA inh HTS OD600 | rRNA inh HTS RFP | FGF22 binding | AF4-AF9 inh
NC(COCc1ccccc1)c1csc(Nc2ccc(C(F)(F)F)cn2)n1 (centres undefined) | -39 | -82 | -22 | i | -10
CCN(C[C@H]1N[C@@H](CO)[C@H]1c1ccc(C2=CCCC2)cc1)C(=O)c1ccccc1 | -15 | -52 | 25 | i | 7.7
COC(=O)c1ccc2nc(C3CCCCC3)c(Cc3ccccc3)n2c1 | -1 | -7 | -3.0 | i | 0.1
COc1ccc(S(=O)(=O)N(C)C[C@H]2Oc3c(NC(=O)Nc4cccc5ccccc45)cccc3C(=O)N([C@H](C)CO)C[C@H]2C)cc1 | 4 | -6 | -1.5 | i | 1.2
C[C@H]1CN([C@@H](C)CO)C(=O)c2cc(C#Cc3ccccc3)cnc2O[C@@H]1CN(C)C(=O)c1ccccc1F | -8 | -35 | 24 | i | 0.2
C[C@H]1CN([C@@H](C)CO)C(=O)c2cccc(NS(=O)(=O)c3ccc(Cl)cc3)c2O[C@H]1CN(C)Cc1ccc(C(=O)Nc2ccccc2N)cc1 | -2 | 3 | -2.1 | i | 1.0
O=c1c(N=Nc2ccccc2)c[nH]n1-c1ccccc1 | 4 | 8 | -4.6 | i | 5.6
O=C(C[C@@H]1CC[C@@H]2[C@H](COC[C@@H](O)CN2C(=O)Nc2ccc3c(c2)OCO3)O1)N1CCN(c2ccccc2)CC1 | -1 | 13 | 1.3 | i | 4.9
Cc1noc(C)c1NC(=O)Nc1ccc2c(c1)C(=O)N([C@@H](C)CO)C[C@@H](C)[C@H](CN(C)C(=O)Nc1c(C)noc1C)O2 | 7 | 9 | -2.7 | i | -1.8
Nc1[nH]c(C(=O)c2ccc(Br)cc2)c(-c2ccccc2Cl)c1C(=O)NCCc1c[nH]c2ccccc12 | -2 | 2 | 14 | · | -1.6
CO[C@@H]1CN(C)C(=O)c2ccc(NC(=O)Cc3ccccc3)cc2OC[C@@H](C)N(C(C)=O)C[C@H]1C | -1 | -5 | 0.1 | i | 0.3
Cc1noc(C)c1NC(=O)N(C)C[C@H]1OCc2cn(nn2)CCCC(=O)N([C@@H](C)CO)C[C@@H]1C | 6&1 | 14&-2 | -4.2&-1.4 | i | -2.4&-0.7&-3.6
O=C(C[C@H]1CC[C@@H]2[C@H](COC[C@@H](O)CN2Cc2ccccc2)O1)N[C@H]1CCN(Cc2ccccc2)C1 | 0 | -9 | -2.1 | i | 6.2
CC(C)CC#Cc1ccc([C@H]2[C@H]3CN(C(=O)Nc4ccccc4)CCCCN3[C@H]2CO)cc1 | -1 | -24 | 5.8 | i | 2.5
CC(C)NC(=O)N[C@H]1CC[C@@H](CCn2cc(-c3ccccc3)nn2)O[C@@H]1CO | -1 | 3 | -0.8 | i | -0.2
NC(c1ccccc1)c1csc(NC(=O)Nc2ccccc2Oc2ccccc2)n1 (centres undefined) | -60 | -79 | -18 | i | 0.4
CO[C@@H]1CN(C)C(=O)c2cc(NC(=O)Nc3cc(F)ccc3F)ccc2OC[C@H](C)N(C(=O)c2cnccn2)C[C@@H]1C | -6&-8 | -16&-15 | 4.7&-1.3 | i | -0.8&1.0
C[C@H](CO)N1C[C@H](C)[C@@H](CN(C)Cc2ccc(C(F)(F)F)cc2)Oc2ccc(N(C)C)cc2CC1=O | -4 | -11 | 2.7 | i | 33*
O=C(C[C@H]1C=C[C@@H](NC(=O)C2CC2)[C@@H](CO)O1)NCc1ccncc1 | -1 | -10 | 1.4 | i | -0.1
COc1ccc2c3c(n(C)c2c1)[C@@H](CO)N(C(=O)C1CC1)CC31CCN(C(=O)c2ccncc2)CC1 | -4 | 7 | -4.0 | i | 2.4
COc1ccc(NC(=O)Nc2cccc3c2O[C@H](CN(C)S(=O)(=O)c2cccs2)[C@@H](C)CN([C@@H](C)CO)C3=O)cc1 | -2 | -11 | 1.2 | i | -2.4
CC(=O)c1cccc(NC(=O)c2ccc(-c3c(C)noc3C)c3ccoc23)c1 | -9 | -27 | -0.5 | i | 0.5
C[C@H](NC(=O)C[C@@H]1C=C[C@@H](NC(=O)c2cccnc2)[C@@H](CO)O1)c1ccccc1 | -1 | -2 | -0.5 | i | -20
CCCCC(=O)N(C)c1c(CC)nc2c(OCc3cc(Cl)cc(Cl)c3)cccn12 | -18 | -37 | 16 | i | 0.4
CC(=O)N(C)C[C@@H]1Oc2cc(-c3ccc(C)cc3)ccc2S(=O)(=O)N([C@@H](C)CO)C[C@H]1C | -11 | -5 | 0.5 | i | -1.5
C[C@@H]1CCCCO[C@@H](CN(C)S(=O)(=O)c2cccs2)[C@@H](C)CN([C@H](C)CO)C(=O)c2cc(NC(=O)CCCCCC(=O)Nc3ccccc3N)ccc2O1 | 4 | 5 | -2.3 | i | -1.9
COc1ccccc1S(=O)(=O)N(C)C[C@@H]1OCc2cn(nn2)CCCC(=O)N([C@@H](C)CO)C[C@H]1C | 26&1 | 8&-1 | 2.6&0.3 | i | -3.0&0.3
CCCNC(=O)C[C@@H]1CC[C@@H]2[C@H](COc3ccc(NC(=O)c4ccccc4)cc3C(=O)N2C)O1 | 1 | 1 | -3.3 | i | -0.9
Nc1ccc(S(=O)(=O)Nc2cnc3c(Cl)cccc3n2)cc1 | 1 | -15 | -2.1 | i | 0.0
O=C(O)c1c(Cl)c(Cl)c(Cl)c(Cl)c1C(=O)OCC1CCCO1 (centres undefined) | 13 | 14 | -1.1 | i | 1.7
C[C@@H]1CN([C@H](C)CO)C(=O)c2cc(NC(=O)Cc3cn(C)c4ccccc34)ccc2O[C@H]1CN(C)Cc1ccc(C(=O)Nc2ccccc2N)cc1 | -4 | 0 | -0.9 | i | -3.4
COCCNC(=O)c1cc2c(c(-c3cccc(C4=CCCCC4)c3)n1)[C@@H](CCO)N([S@](=O)C(C)(C)C)C2 | -11 | -11 | 19 | i | -2.9
C[C@@H]1CN([C@H](C)CO)C(=O)c2cc(NC(=O)NC3CCCCC3)ccc2O[C@@H]1CN(C)Cc1ccc2c(c1)OCO2 | 4 | 3 | -3.5 | i | -1.4
Cc1noc(C)c1S(=O)(=O)Nc1ccc2c(c1)C(=O)N([C@H](C)CO)C[C@@H](C)[C@@H](CN(C)Cc1ccc(-c3ccccc3)cc1)O2 | 3 | -1 | 3.9 | i | 10
CN1C[C@H]2[C@@H](c3ccccc31)[C@H](CO)N2C(=O)C1CCCCC1 | 2 | -3 | -1.2 | i | -5.7
CC(C)CC#Cc1ccc2c(c1)O[C@H](CN(C)C(=O)NC1CCCC1)[C@H](C)CN([C@H](C)CO)S2(=O)=O | -6 | -19 | 6.8 | i | 0.3

Filtered by structure, the entries above with two or more sulfur atoms.
SMILES | rRNA inh HTS | rRNA inh HTS OD600 | rRNA inh HTS RFP | FGF22 binding | AF4-AF9 inh
COc1ccc(NC(=O)Nc2cccc3c2O[C@H](CN(C)S(=O)(=O)c2cccs2)[C@@H](C)CN([C@@H](C)CO)C3=O)cc1 | -2 | -11 | 1.2 | i | -2.4
C[C@@H]1CCCCO[C@@H](CN(C)S(=O)(=O)c2cccs2)[C@@H](C)CN([C@H](C)CO)C(=O)c2cc(NC(=O)CCCCCC(=O)Nc3ccccc3N)ccc2O1 | 4 | 5 | -2.3 | i | -1.9

Limited to rRNA inh HTS RFP and FGF22 binding (two entries from above):
structure,rRNA inh HTS RFP,FGF22 binding
C[C@@H]1CCCCO[C@@H](CN(C)S(=O)(=O)c2cccs2)[C@@H](C)CN([C@H](C)CO)C(=O)c2cc(NC(=O)CCCCCC(=O)Nc3ccccc3N)ccc2O1,-2.3,i
CN1C[C@H]2[C@@H](c3ccccc31)[C@H](CO)N2C(=O)C1CCCCC1,-1.2,i

Carrying on:
SMILES | rRNA inh HTS | rRNA inh HTS OD600 | rRNA inh HTS RFP | FGF22 binding | AF4-AF9 inh
C[C@H](O)C#Cc1ccc2c(c1)O[C@@H](CN(C)Cc1ccccn1)[C@@H](C)CN([C@H](C)CO)S2(=O)=O | -2 | 1 | 1.8 | i | 0.0
CS(=O)(=O)N1CC2(C1)[C@H](c1ccccc1)[C@H](CO)N2Cc1ccc(F)cc1 | -5 | -1 | -3.2 | i | -1.7
C[C@H]1CN([C@@H](C)CO)C(=O)c2ccccc2-c2ccccc2CO[C@@H]1CN(C)C(=O)[C@@H]1CCCN1C | 0 | 0 | -0.3 | i | -1.1
C[C@H]1CN([C@@H](C)CO)C(=O)c2cc(NC(=O)Nc3ccccc3)ccc2O[C@H]1CN(C)S(=O)(=O)c1ccc(Cl)cc1 | -5 | -4 | 2.9 | i | 2.6
CCS(=O)(=O)N1CC2(CN(Cc3ccccc3F)[C@H](CO)c3[nH]c4cc(OC)ccc4c32)C1 | -10 | -24 | 1.0 | i | -8.3
CCCNC(=O)N(C)C[C@H]1Oc2ncc(C#CC3CC3)cc2C(=O)N([C@H](C)CO)C[C@H]1C | 4 | 8 | -1.0 | i | -1.8
C[C@H]1CN([C@@H](C)CO)C(=O)c2cc(NS(C)(=O)=O)ccc2O[C@@H]1CN(C)Cc1ccc(C(F)(F)F)cc1 | 0 | 9 | 0.3 | i | -8.9
C[C@@H]1CCCCO[C@@H](CN(C)CC2CCCCC2)[C@@H](C)CN([C@@H](C)CO)C(=O)c2cc(NC(=O)c3ccccc3)ccc2O1 | 5 | -1 | 4.9 | i | 8.7
C[C@@H]1CN([C@@H](C)CO)C(=O)c2cc(NS(=O)(=O)c3cn(C)cn3)ccc2O[C@H]1CN(C)S(=O)(=O)c1ccc(F)cc1 | 6 | 9 | -3.0 | i | -0.2
COc1ccccc1S(=O)(=O)N(C)C[C@@H]1OCc2ccccc2-c2ccccc2C(=O)N([C@@H](C)CO)C[C@H]1C | -1 | 1 | -0.2 | i | 2.2
CCC(=O)N1CC2(C1)CN(S(=O)(=O)c1ccccc1)[C@H](CO)c1[nH]c3cc(OC)ccc3c12 | -3 | -5 | -0.7 | i | 2.2
Cc1noc(C)c1NC(=O)N(C)C[C@H]1Oc2ccc(NS(=O)(=O)c3cn(C)cn3)cc2CC(=O)N([C@H](C)CO)C[C@H]1C | 2 | 2 | -1.9 | i | 1.3
COc1ccc(NC(=O)N[C@@H]2CC[C@H](CCn3cc(-c4ccccn4)nn3)O[C@H]2CO)cc1 | -2 | 3 | -2.0 | i | -1.2
C[C@H]1CN([C@@H](C)CO)S(=O)(=O)c2ccc(-c3ccccc3)cc2O[C@H]1CN(C)C(=O)c1ccc2c(c1)OCO2 | -14 | -15 | 1.8 | i | -2.3
C[C@@H]1CN([C@H](C)CO)C(=O)Cc2cc(NC(=O)CCC(F)(F)F)ccc2O[C@H]1CN(C)C(=O)Nc1ccc(F)cc1 | 5 | 5 | -1.2 | i | -3.8
COc1cc(OC)cc(-c2c(Sc3ccccc3)c3cc(-c4cnc(N5CCOCC5)nc4)ccc3n2C)c1 | 8 | 10 | -7.4 | i | 0.6
CCCNC(=O)c1cc(C2CCCN(C(=O)c3ccc(NC(C)=O)cc3)C2)on1 (centres undefined) | 7 | 10 | -1.5 | i | -1.6
COc1cccc(NC(=O)N2C[C@@H](O)COC[C@@H]3O[C@H](CC(=O)NC4Cc5ccccc5C4)CC[C@H]32)c1 | 1 | -3 | 0.9 | i | -0.4
C[C@@H]1CN([C@@H](C)CO)C(=O)c2ccccc2-c2ccccc2CO[C@H]1CN(C)C(=O)[C@H]1CCCN1C | 0 | 5 | -1.2 | i | -9.7
C[C@@H]1CN([C@@H](C)CO)C(=O)c2cc(NC(=O)Nc3ccc4c(c3)OCO4)ccc2O[C@H]1CN(C)S(=O)(=O)c1ccc(Cl)cc1 | -2 | -5 | -2.1 | i | 7.9
CCCN1[C@@H]2c3ccc(-c4cncnc4)c(=O)n3C[C@@H]2[C@@H](CO)[C@@H]1C(=O)OC | -1 | 2 | 0.4 | i | -31
O=C(C[C@H]1C[C@@H]2c3cc(NC(=O)c4cccnc4)ccc3O[C@@H]2[C@@H](CO)O1)NCc1ccncc1 | 1 | 6 | 0.8 | i | -3.3
CCCNC(=O)N[C@H]1CC[C@@H](CCn2cc(C3CCCCC3)nn2)O[C@@H]1CO | 0 | 2 | -1.0 | i | -13
C[C@H]1CN([C@@H](C)CO)C(=O)c2cc(-c3cncnc3)cnc2O[C@H]1CN(C)C(=O)CN1CCOCC1 | 6 | 7 | -3.6 | i | -3.1
O=C(Cc1ccccc1)N[C@@H]1C=C[C@H](CC(=O)N2CCOCC2)O[C@H]1CO | 1 | 1 | -1.2 | i | ?
Cc1noc(C)c1NC(=O)Nc1ccc2c(c1)C(=O)N([C@@H](C)CO)C[C@H](C)[C@@H](CN(C)C(=O)C1CCCCC1)OCCCC[C@H](C)O2 | 2 | 0 | 1.1 | i | 2.2
COc1cc(CNc2ncnc3c2ncn3[C@H]2CN(Cc3ccc4c(c3)OCO4)C[C@@H](CO)O2)cc(OC)c1OC | -13 | -1 | -0.1 | i | -0.4
